# gsp ag: qHTS for Agonist of gsp, the Etiologic Mutation Responsible for Fibrous Dysplasia/McCune-Albright Syndrome: qHTS. 0.13% of 340,000 active. Potency, µM (top dose mostly 76.9 µM), for the others: at the top dose activation (cAMP increase), hits mostly activators. gsp mutant cells, cAMP HTRF, 30 min; control for the full effect not named in the record; active = well fitted activation curve with a large enough effect; inconclusive = small, poorly fitted or top-dose-only effect, or another doubt; inactive = no such curve, though single readings can be large or run the other way; cell line not stated here;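 also: phosphodiesterase inhibitor Ro 20-1724 added with compounds to block cAMP breakdown; potency is read from the fitted curve at half-maximal effect; nearly all actives have a fitted effect of over 60% in size; about a fifth of the inactives were tested at one dose only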
#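 Cells in DMEM/10% FBS with G418 were pretreated with compounds in DMSO plus […] (300 uM stock) for 30 min at 37C. cAMP was measured by HTRF (cAMP-d2 plus anti-cAMP antibody-K) after 30 min at room temperature.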
# ClpP mod: qHTS Assay for Activators of ClpP; ATP-dependent Clp protease proteolytic subunit (Bacillus subtilis (strain 168)), P80244; purified B. subtilis ClpP, FRET peptide cleavage, 20 min; Potency, µM (titrated, usually from 57.5 µM), inactives show at the top dose activity change, negative = active; 1.9% of 340,000 active; AID 651965, 2013; active = well fitted falling curve with a large enough effect; inconclusive = small, poorly fitted or top-dose-only effect; inactive = no such curve, though single readings can be large or run the other way; also: potency is read from the fitted curve at half-maximal effect; the source files actives as falling curves though it sought activators and does not explain the sign; nearly all actives have a fitted effect of over 65% in size; many hits overshoot -100%
# Target sequence (P80244 whole entry, looked up): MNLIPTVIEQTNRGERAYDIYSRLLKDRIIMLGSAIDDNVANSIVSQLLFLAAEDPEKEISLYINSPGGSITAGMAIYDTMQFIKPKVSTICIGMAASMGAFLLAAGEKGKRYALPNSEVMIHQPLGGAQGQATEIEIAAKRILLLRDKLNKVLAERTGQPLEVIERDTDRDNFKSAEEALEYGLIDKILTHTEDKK
#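 Buffer: 100 mM Tris/HCl pH8, 100 mM KCl, 0.05% low protease BSA, 2.5% glycerol, 0.01% Tween-20. ClpP 10 microg/mL final; 20 min RT; delta FRET normalized to ADEP and DMSO controls.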
# TRPML1 blocker: qHTS for Inhibitors of the Human Mucolipin Transient Receptor Potential 1 (TRPML1) | Mucolipin-1 (Homo sapiens), Q9GZU1 | TRPML1-inducible cells, Ca2+ dye fluorescence, FDSS; active compounds read low; inhibition of EC80 agonist-evoked calcium signal | activity change, negative = inhibition, % (test concentration not listed) | 0.02% of 390,000 active | AID 624415, 2012; in the data active means activity change below about -50%; inconclusive means about -30% to -50%; inactive means above about -30%;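 also: stimulus is agonist 54-4 at its EC80 concentration; % is scaled to controls: 0 for no effect and ±100 for the full control effect; compound concentration not given in the record; the text of the record puts the active cut at -80%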
# Target sequence (Q9GZU1 whole entry, looked up): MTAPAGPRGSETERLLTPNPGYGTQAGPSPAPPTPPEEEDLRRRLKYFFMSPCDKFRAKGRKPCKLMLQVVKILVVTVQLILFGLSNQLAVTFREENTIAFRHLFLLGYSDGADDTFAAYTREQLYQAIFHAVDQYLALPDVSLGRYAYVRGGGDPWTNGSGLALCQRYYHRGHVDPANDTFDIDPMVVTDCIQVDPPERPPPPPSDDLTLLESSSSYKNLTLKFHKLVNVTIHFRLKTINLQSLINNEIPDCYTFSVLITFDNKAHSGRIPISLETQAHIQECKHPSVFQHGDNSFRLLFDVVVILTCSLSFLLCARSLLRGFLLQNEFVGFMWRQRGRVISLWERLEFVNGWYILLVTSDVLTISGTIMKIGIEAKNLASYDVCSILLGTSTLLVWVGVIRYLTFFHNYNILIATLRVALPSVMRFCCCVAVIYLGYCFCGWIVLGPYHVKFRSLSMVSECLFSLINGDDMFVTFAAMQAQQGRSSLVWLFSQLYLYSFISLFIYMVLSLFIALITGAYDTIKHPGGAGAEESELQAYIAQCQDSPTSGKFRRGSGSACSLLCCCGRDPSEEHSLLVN
#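 TRPML1-DL cells, Tet-induced overnight (~16 h, 37 °C) at 1,500 cells/well, were loaded with Ca8 no-wash dye plus quencher for 45-90 min at room temperature. Compounds were pinned during FDSS kinetic reading; agonist 54-4 at EC80 (4 uM final) then added.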
# Menin-MLL FL inh: qHTS Assay for Inhibitors Targeting the Menin-MLL Interaction in MLL Related Leukemias: Competition With Fluorescein Labeled MLL-derived Peptide | Fluorescence polarization, fluorescein-MLL peptide displacement from menin | FP activity change, % at 61.4 µM | 290,000 tested, under 10 active | AID 1766, 2009; inconclusive = falling polarisation curve, or a change in total fluorescence; inactive = total fluorescence flat and polarisation flat or rising; no compound was filed as active; the % refers to the polarisation; negative = inhibition;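 also: % of control where 0% means no effect; inhibitors lower the polarisation; unlabelled MLL peptide was the positive control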
# gsp antagonist: qHTS for Antagonists of gsp, the Etiologic Mutation Responsible for Fibrous Dysplasia/McCune-Albright Syndrome: qHTS | gsp-mutant cells, cAMP HTRF, 30 min; control for the full effect not named in the record | Potency, µM (top dose mostly 76.9 µM), for inactives: top-dose activity change, negative = inhibition, usual class: inhibitors | 0.4% of 340,000 active | AID 624288, 2012; active = falling curve of any shape with a large fitted effect; inconclusive = falling curve, mostly with a smaller effect; inactive = flat or rising curve; cell line not stated here;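 also: intracellular cAMP measured with PDE inhibitor Ro 20-1724 present during compound exposure; potency is read from the fitted curve at half-maximal effect; % is scaled to controls: 0 for no effect and ±100 for the full control effect; nearly all actives have a fitted effect of over 65% in size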
#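 Measurement of cellular cAMP by homogeneous time-resolved fluorescence following a 30 min compound exposure at 37C. The PDE inhibitor […] was present throughout; the assay buffer was DPBS with 0.05% BSA and 0.005% Tween 20.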
# TRPML1 agonist: qHTS for Agonists of the Human Mucolipin Transient Receptor Potential 1 (TRPML1); Mucolipin-1 (Homo sapiens), Q9GZU1; activation, % (test concentration not listed); AID 624414, 2012; 0.12% of 410,000 active; TRPML1-expressing cells, Ca2+ dye fluorescence, FDSS; host cell line not named in the record; reference of the full effect not given here; in the data active = activation above about 50%; inconclusive = about 30% to 50%; inactive = below about 30%; also: 0% is about no effect; the text of the record puts the active cut at 80%
#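 TRPML1-DL cells, Tet-induced overnight (~16 h, 37 degrees C), loaded 45-90 min at room temperature with Ca8 no-wash calcium dye plus quencher. FDSS fluorescence: 10 s baseline, compound pin-transfer, 110 s agonist read, then EC80 54-4 (4uM final) and 110 s antagonist read.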
# Numbers without * were called inactive; ? = inconclusive; . = no result given; & = joins results of further samples; [ ] = dose if it differs, or a comment. Compounds as they come, and some 2.1% of all compounds hit somewhere here.
SMILES,gsp ag,ClpP mod,TRPML1 blocker,Menin-MLL FL inh,gsp antagonist,TRPML1 agonist
C=CCN1C(=O)c2ccccc2NC1c1cc(Br)cs1 (centres undefined),-6%[15.4 µM],.,3,-1.2,7%,-0.5
COc1ccc(NC(=O)Cn2c([N+](=O)[O-])cnc2C)cc1Cl,3%[15.4 µM],-1.1%,10,3.1,3%,-0.7
COc1ccc(NC2CCCN(C(=O)CSc3ccccc3)C2)cc1 (centres undefined),-29%,2.2%,1,.,-6%,-0.2
O=C(CN1C(=O)S/C(=C\c2cccs2)C1=O)Nc1ccc(O)c(C(=O)O)c1,-10%,4.0%,-4,.,-5%,-0.5
c1cn2c(Nc3ccc4c(c3)OCCO4)c(-c3ccc(N4CCOCC4)cc3)nc2cn1,25%,-7.2%,-9,3.4,-4%,2.1
O=C(Oc1cncc(Cl)c1)c1ccco1,-37%,0.5%,-3,0.9,1%,-0.8
CCc1nccn1S(=O)(=O)c1ccc(OC)c(C)c1C,18%,2.5%,-9,2.2,-1%,-0.5
CC(C)c1nc2sc3c(c2c(=O)o1)CCCC3,?,-1.0%,7,0.0,8%,-0.2
CCOc1cccc(CNCc2ccc(C(=O)O)cc2)c1,-26%,.,20,-0.5,-1%,-0.3
Cc1ccc(NC(=O)CCC(=O)OCc2ccc(Br)cc2)cc1,-15%[15.4 µM],0.6%,8,6.2,10%,-0.1
CN(C)S(=O)(=O)c1ccc(C(=O)NNC(=O)C2COc3ccccc3O2)cc1 (centres undefined),-2%,0.9%,5,-1.2,15%,1.2
COc1cc(SC)ccc1C(=O)Nc1c(Cl)cncc1Cl,7%[15.4 µM],.,-5,2.3,-24%,2.4
CC(C)(C)N(Cc1ccccc1)C(=O)COC(=O)c1ccc(N2CCCC2=O)cc1,17%,.,-6,.,-17%,1.2
CCOc1ccc(S(=O)(=O)Nc2ccccc2C(=O)N/N=C/c2c(OC)ccc3ccccc23)cc1,-1%,-10%,0,16,-10%,-0.2
CCN(CC)C(=O)N1c2ccccc2C=Cc2ccccc21,-8%,0.4%,8,0.4,-18%,2.7
O=C1OC(Nc2ccc(F)cc2F)c2ccccc21 (centres undefined),3%,-0.5%,9,3.3,15%,-0.2
CCOC(=O)c1ccc(CSc2n[nH]c(C)n2)o1,-18%,1.8%,15,3.2,7%,-0.8
Cc1c(CCC(=O)O)c(=O)oc2c(C)c(OCc3ccccc3Cl)ccc12,5%[15.4 µM],.,-2,2.8,4%,-0.6
Cc1ccc(S(=O)(=O)/N=C2/NC(=O)/C(=C\c3ccco3)S2)cc1,-39%[inhibitor],-1.8%,6,?,-7%,1.4
c1ccc(-c2ccccc2OCCCCN2CCCCCC2)cc1,-2%,1.2%,4,2.4,10%,0.3
CN1C(=O)C2(SCC(=O)N2c2ccc(Cl)cc2)c2ccccc21 (centres undefined),.,-1.7%,1,.,.,-0.9
CCN(CC)CCn1c2c(c(SCC(=O)Nc3cccc4ccccc34)nc1=O)CCCC2,-8%,-18%,5,.,-11%,0.1
CC1C=CCC2C(=O)N(c3cc(Cl)ccc3O)C(=O)C12 (centres undefined),?,1.0%,24,0.0,9%,0.2
CCn1nc(NC(=O)c2ccncc2)c2cc3cc(C)ccc3nc21,-36%[inhibitor],2.5%,-6,-1.1,18%,-0.3
O=C(N=C1SC2CS(=O)(=O)CC2N1Cc1ccccc1)C1CCCCC1 (centres undefined),3%,0.0%,2,.,9%,-0.6
COc1cccc(CN2CCN(C(=O)CCc3nnc(C4CCCCC4)o3)CC2=O)c1,-21%,0.0%,-29,-0.5,-5%,0.2
Cn1cnnc1Sc1ccc(C(F)(F)F)cc1[N+](=O)[O-],2%[15.4 µM],.,-13,4.3,4%,-0.5
CN(C(=O)c1cccc(NC(=O)Cc2ccc(NC(=O)C3CCN(C(=O)c4ccccc4)CC3)cc2)c1)C1CCCCC1,.,-2.2%,-23,.,-5%,1.4
CCc1cccc(-n2c(SCC(=O)c3c(N)n(C4CC4)c(=O)[nH]c3=O)nnc2N2CCOCC2)c1,15%,0.7%,5,.,24%,0.2
COc1ccc(C2=C(C)C(=O)N(Cc3ccc(C(=O)NC(C)c4ccccc4)cc3)S2(=O)=O)cc1 (centres undefined),.,-16%,12,.,.,1.8
O=C1NC(Cc2ccccc2)c2nc3ccc(Cl)cc3c(=O)n2-c2cc3ccccc3cc21 (centres undefined),?,?,15,.,.,1.1
Cc1nnc(SCc2cc(=O)[nH]c(/N=C(\N)Nc3ccccc3)n2)s1,-12%[15.4 µM],.,21,2.3,8%,-1.1
CCc1nnc(NC(=O)c2ccc(-c3ccc(F)cc3)o2)s1,-29%,4.1%,8,-4.1,-16%,-0.2
CC(C)c1nc(SCC(=O)NCC2CCCO2)c2c(=O)n(C)c(=O)n(C)c2n1 (centres undefined),?,1.4%,17,0.0,10%,-0.6
Cc1ccc(S(=O)(=O)N(C)C)cc1NC(=S)N1CCc2ccccc21,-24%,1.4%,16,-1.2,-4%,-0.1
COC(=O)c1ccc(NC(=O)CSc2nnc(-c3ccccc3)n2C)cc1,-16%,2.2%,1,7.0,4%,-0.6
CCN(Cc1ccccc1)S(=O)(=O)c1cc(C(=O)Nc2cc(Cl)cc(Cl)c2)ccc1F,.,?,2,.,.,0.7
O=C1CCC[C@@H]2C[C@@]3(C[C@@H]4CCN1[C@H]24)Nc1cc(Cl)c(Cl)cc1NC3=NCc1ccccc1,.,-1.8%&-0.7%,-2,.,?,-0.4&1.4
CC1CCCN(c2oc(-c3cccc4ccccc34)nc2C#N)C1 (centres undefined),12%,3.2µM*,1,6.5,4%,0.3
O=[N+]([O-])c1cnn(-c2nc(-c3cccs3)cc(C(F)(F)F)n2)c1,-1%[15.4 µM],.,20,-9.8,-8%,-0.7
Cn1nc(C(C)(C)C)cc1NC(=O)Nc1cc(Cl)cc(Cl)c1,9%[15.4 µM],.,30,4.4,-6%,0.0
CC(Nc1nc(-c2ccc(F)cc2)cs1)c1nc2cc(Cl)c(N3CCCCC3)cc2n1CCCO (centres undefined),?,0.5%,3,.,-11%,-0.8
O=C1c2cc3ccccc3c(-c3ccccc3)c2C(=O)N1c1ccccn1,?,32µM*,10,?,-11%,0.3
COCCCNC(=O)c1ccc(NS(C)(=O)=O)cc1,-21%,-7.4%,-5,-0.2,-7%,0.0
CCCN1CCN(CCCNC(=O)c2ccc3c(c2)sc2nc(-c4ccc(C)cc4)cn23)CC1,.,4.3%,8,.,.,1.4
COc1ccc(NC(=O)CN(c2cccc(F)c2)S(C)(=O)=O)cc1OC,-15%,-0.1%,-9,2.5,4%,-0.1
CN(C)c1ccc(C=C2SC(=S)NC2=O)cc1,-19%,.,5,.,?,?
COc1ccc(-c2cc(C(=O)NC3CCCC3)no2)cc1OC,-8%,-4.8%,14,3.7,7%,0.2
Nc1c(C(=O)NCc2ccc(Cl)cc2)sc2nc3c(c(C(F)(F)F)c12)CCC3,24%,0.0%,2,-1.8,2%,0.7
CC(C)(C)C(=O)N1CCN(c2ccc(NC(=O)c3ccco3)cc2)CC1,-6%,.,-5,.,-8%,0.1

# The list goes on.
SMILES,gsp ag,ClpP mod,TRPML1 blocker,Menin-MLL FL inh,gsp antagonist,TRPML1 agonist
CCn1c2ccccc2c2cc(C#N)c(N)nc21,-1%,3.8%,25,.,7%,2.2
CN(CCC#N)CC(=O)Nc1ccc(S(N)(=O)=O)cc1,-4%[15.4 µM],.,3,3.1,3%,-0.6
O=C(CC(=O)N/N=C\c1ccc(F)cc1)NCCc1ccccc1,-16%[15.4 µM],.,-7,-1.4,.,2.0
O=C(CCN1CCN(S(=O)(=O)c2ccc(Br)cc2)CC1)Nc1ccccc1F,-6%[15.4 µM],-7.5%,-2,0.6,-16%,-1.3
Cc1ccc2c(=O)cc(C(=O)Nc3ccc(S(=O)(=O)N(C)c4ccccc4)cc3)oc2c1C,.,-3.7%,1,.,.,-0.4
CCn1c(SCC(=O)OC)nnc1C1CCCCC1,7%,-1.8%,20,6.3,5%,0.4
COc1ccc(C)cc1-n1nnnc1SCC(=O)c1cc(C)n(Cc2ccco2)c1C,-32%[inhibitor],3.2%,-11,13,6%,-0.3
COc1cc(CNCCc2ccc(S(N)(=O)=O)cc2)ccc1OCC(=O)NC(C)(C)C,3%,-1.5%,13,-0.3,7%,0.1
COc1cccc(N(CC(=O)N2CCc3ccccc3C2)S(C)(=O)=O)c1,0%,-1.2%,-14,4.7,6%,0.0
CC1Cc2ccccc2N1C(=O)CN(C)CC(=O)Nc1ccc(OC(F)(F)F)cc1 (centres undefined),2%,0.4%,7,.,6%,0.8
Cc1cccc2cc(C(c3nnnn3CC3CCCO3)N3CCCc4ccccc43)c(=O)[nH]c12 (centres undefined),5%,-0.8%,-9,1.7,-20%,-0.1
COC(=O)N/N=C/c1cn(Cc2ccccc2F)c2ccccc12,-3%[15.4 µM],?,21,0.5,-8%,1.9
COC(=O)c1ccc(NC(=O)CCOc2ccccc2)cc1,-34%[inhibitor],-0.9%,10&0,-4.0,6%,-0.8&-0.7
COc1cc(/C=N/NC(=O)c2cccnc2)ccc1OS(=O)(=O)c1ccc(F)cc1,-27%,-1.0%,10,0.8,?,1.0
CCOC(=O)c1c(N)sc(=S)c2c1CCC2,?,-1.0%,-5,?,7%,0.0
CCC(C)NC(=O)Cn1c(=O)n(CCCC(=O)NCc2ccc(C)cc2)c(=O)c2ccccc21 (centres undefined),.,-3.1%,9,.,.,-0.4

# Source: PubChem BioAssay
